D2 agonist: human D2 receptor agonism in beta-arrestin assay; DiscoveRx PathHunter D2 beta-arrestin, luminescence, 90 min; 100% = 57 uM dopamine signal; activation, % (no concentration beside the values); AID 624465; 360,000 tested, 0.084% active; in the data active = activation above about 40%; inconclusive = about 15% to 40%; inactive = below about 15%; also: compound concentration not given in the record; the text of the record calls up to 30% inactive
Target sequence (P14416 whole entry, looked up): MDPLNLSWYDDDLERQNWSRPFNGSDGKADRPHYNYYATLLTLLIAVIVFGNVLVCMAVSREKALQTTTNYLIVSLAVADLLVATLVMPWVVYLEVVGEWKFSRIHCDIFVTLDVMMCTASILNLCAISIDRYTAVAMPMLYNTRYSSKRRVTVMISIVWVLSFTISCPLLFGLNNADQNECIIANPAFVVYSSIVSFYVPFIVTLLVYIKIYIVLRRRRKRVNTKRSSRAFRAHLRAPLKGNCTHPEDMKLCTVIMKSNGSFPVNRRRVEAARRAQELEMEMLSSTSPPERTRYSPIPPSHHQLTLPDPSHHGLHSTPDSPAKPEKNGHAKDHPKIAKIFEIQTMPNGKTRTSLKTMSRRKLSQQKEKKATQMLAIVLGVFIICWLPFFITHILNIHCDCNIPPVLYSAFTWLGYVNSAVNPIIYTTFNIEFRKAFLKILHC
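Agonist mode: compounds alone added to overnight-plated D2 PathHunter cells for 90 min at 37 C, with 57 uM final dopamine (EC100) defining full response. Beta-arrestin recruitment detected by chemiluminescent reagent, read after 1 h at ambient temperature.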
TRPML1 ag: activates the human TRPML1 channel; Q9GZU1; TRPML1-expressing cells, Ca2+ dye fluorescence, FDSS; host cell line not named in the record; reference of the full effect not given here; activation, % (test concentration not listed); 410,000 tested, 0.12% active; in the data active = activation above about 50%; inconclusive = about 30% to 50%; inactive = below about 30%; also: 0% is about no effect; the text of the record puts the active cut at 80%
Target sequence (Q9GZU1 whole entry, looked up): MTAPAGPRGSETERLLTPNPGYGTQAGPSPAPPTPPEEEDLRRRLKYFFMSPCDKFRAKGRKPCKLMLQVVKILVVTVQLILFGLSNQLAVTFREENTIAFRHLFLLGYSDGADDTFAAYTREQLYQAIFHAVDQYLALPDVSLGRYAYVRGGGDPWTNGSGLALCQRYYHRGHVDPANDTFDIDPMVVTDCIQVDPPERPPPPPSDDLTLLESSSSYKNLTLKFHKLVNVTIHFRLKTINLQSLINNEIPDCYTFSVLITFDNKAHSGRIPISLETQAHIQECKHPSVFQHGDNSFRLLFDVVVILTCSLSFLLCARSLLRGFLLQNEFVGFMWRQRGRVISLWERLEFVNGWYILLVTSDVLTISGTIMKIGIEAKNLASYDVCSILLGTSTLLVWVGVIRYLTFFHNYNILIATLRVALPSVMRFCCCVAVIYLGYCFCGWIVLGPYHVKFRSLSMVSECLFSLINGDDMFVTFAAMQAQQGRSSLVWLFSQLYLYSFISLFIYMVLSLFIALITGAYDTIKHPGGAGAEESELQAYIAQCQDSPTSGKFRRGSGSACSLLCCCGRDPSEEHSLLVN
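Cells: TRPML1-DL, 1X Tet inducer, ~16 h at 37 degrees C/5% CO2. Dye: ABD Ca8 no-wash + quencher, 45-90 min RT. Read: 10 s baseline, compound add, 110 s agonist phase; 54-4 EC80 (4uM final), 110 s antagonist phase.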
Six1-Eya2 inh: inhibitors of human Six1/Eya2 interaction; activity change, % (test concentration not listed); 360,000 tested, 0.56% active; Q15475+O00167; AlphaScreen GST-Six1/His-Eya2 binding, biochemical; stronger effect = lower value; control for the full effect not named in the record; in the data active = activity change below about -65%; inconclusive = about -30% to -65%; inactive = above about -30%; also: % is scaled to controls: 0 for no effect and ±100 for the full control effect; compound concentration not given in the record
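Six1/Eya2 binding was read as AlphaScreen signal after compounds were pinned into GST-Six1 plus His-tagged Eya2 (5X stock 250/500 nM) in pH 8.0 Tris/NaCl/TCEP buffer, beads added, then incubated 1 h, 37 C, dark.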
D2 potentiator: positive allosteric modulators of human D2 dopamine receptor; P14416; DiscoveRx D2 beta-arrestin cells, luminescence, 90 min; 100% = 57 uM dopamine signal; potentiation, % (concentration not given with the values); 360,000 tested, 0.23% active; active = potentiation of 50% or more; inconclusive = 30% to 50%; inactive = 30% or less;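 also: compound concentration not given in the record; tested on top of an EC20 dose of dopamine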
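PathHunter beta-arrestin assay in DiscoveRx D2 cells. Compounds were added with an EC20 of dopamine (50 nM final) for 90 min at 37 deg C. Luminescence was read 1 h after detection reagent, with 57 uM dopamine as the EC100 control.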
TRPML1 inh: human mucolipin-1 channel inhibition | 390,000 tested, 0.02% active | TRPML1-inducible cells, Ca2+ dye fluorescence, FDSS; stronger effect = lower value; inhibition of EC80 agonist-evoked calcium signal | activity change, negative = inhibition, % (test concentration not listed) | Q9GZU1; in the data active means activity change below about -50%; inconclusive means about -30% to -50%; inactive means above about -30%;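 also: stimulus is agonist 54-4 at its EC80 concentration; % is scaled to controls: 0 for no effect and ±100 for the full control effect; compound concentration not given in the record; the text of the record puts the active cut at -80%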
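Tet-induced TRPML1-DL cells loaded with Ca8 no-wash calcium dye were read kinetically on FDSS. Compound addition was followed by EC80 agonist 54-4 (4 uM final); inhibition was read over 110 s.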
PINK1 expr mod: modulators of PINK1 expression; PINK1 immunofluorescence, high-content cytometry, 24 h; Potency, µM (series often up to 76.6 µM), inactives show at the highest dose activation (PINK1 increase), usual class: activators; 410,000 tested, 0.2% active; AID 624263; active = well fitted activation curve with a large enough effect; inconclusive = small, poorly fitted or top-dose-only effect; inactive = flat fitted curve, though single readings scatter; cell line not stated here;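 also: potency is read from the fitted curve at half-maximal effect; % of control where 0% means no effect; nearly all actives have a fitted effect of over 65% in size; a mitochondrial uncoupler was the plate control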
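Decision-based qHTS: stable cells, 24 h exposure to five compound concentrations, CCCP as control. Fixed cells stained for PINK1 plus nuclear, mitochondrial and cell markers, cytometer read.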
Starred values were filed as active, the others as inactive; ? = inconclusive; . = not tested or not shown; [ ] = dose if it differs, or a comment.

SMILES | D2 agonist | TRPML1 ag | Six1-Eya2 inh | D2 potentiator | TRPML1 inh | PINK1 expr mod
CC(C)[C@H](NC(=O)OCc1ccccc1)C(=O)OCC(=O)c1ccccc1 | -5.9 | 4.2 | 2.6 | 0.2 | 32.7 | 0.6%
CC(=O)Nc1ccc(NC(C)=C(C#N)C#N)cc1 | -3.8 | 0.5 | 8.2 | 0.9 | -5.5 | 2.4%
Cc1cc(C(=O)NC2CCCc3c2cnn3-c2cccc(C)c2C)c(C)o1 (stereo unspecified) | -0.5 | 1.9 | 0.9 | -7.7 | -7.0 | 1.9%
Cc1ccn2c(Nc3ccc4c(c3)OCO4)c(-c3ccc(Cl)cc3)nc2c1 | . | 2.9 | . | . | -16.0 | 1.8%
CCOC(=O)c1c(CN(C)C)oc2cc(CN(C)C)c(O)c(CSc3ccccc3)c12 | -4.3 | -0.7 | ? | -43.4 | -2.0 | -0.8%
Cc1cccc(NC(=O)c2sc3nc4c(c(-c5ccco5)c3c2N)CCC4)c1 | -11.2 | 1.4 | 18.7 | -1.8 | 23.4 | 5.4%
Cc1ccc(CNC(=O)COCc2cc(-c3cccs3)on2)cc1 | . | 1.0 | . | . | -19.3 | 0.0%
COc1ccc(S(=O)(=O)NCc2ccccn2)cc1NC(=O)c1ccccc1 | -1.7 | 0.0 | -5.4 | -10.7 | 7.1 | 9.2%
CCOc1cc(C(=O)NCc2ccccc2)ccc1OCC(=O)N1CCOCC1 | -17.8 | 0.9 | -7.5 | -8.7 | 12.7 | 0.0%
CCC(=O)N1CCCc2cc(S(=O)(=O)N3CCN(c4ccccn4)CC3)ccc21 | -3.5 | 1.0 | -9.1 | 3.1 | 2.4 | -0.9%
COc1ccc(Cl)c(OC)c1C(=O)NC(=O)Nc1c(F)cc(F)cc1F | -3.8 | 1.1 | -0.7 | -7.5 | 29.8 | -0.9%
CCOc1ccc(N2C(=O)c3ccc(C(=O)OCC(=O)N(CC)C4CCS(=O)(=O)C4)cc3C2=O)cc1 (stereo unspecified) | 5.0 | 0.6 | -10.7 | 0.2 | 0.8 | 3.3%
CC(C)N(Cc1ccccc1)C(=O)CSc1nccn1C | -4.9 | 0.8 | 2.4 | -1.2 | 7.6 | 1.2%
O=C(NCCc1ccccc1)c1cnc2ccccc2n1 | 0.7 | . | 2.3 | -7.4 | . | 0.2%
CC(NC(=O)COC(=O)C1CCC1)c1ccccc1 (stereo unspecified) | 0.9 | 2.2 | -2.0 | 3.2 | 12.1 | -2.6%
C=CCC1(CC=C)CCCN1C(=O)c1cc(COc2ccc(-n3cncn3)cc2)on1 | 5.4 | 4.8 | -4.7 | -6.8 | 22.3 | 0.2%
COC(=O)c1cccc(CN2C(=O)SC(Nc3ccccc3)C2=O)c1 (stereo unspecified) | -2.6 | 0.0 | 7.9 | -6.8 | ? | 0.1%
CCOC(=O)CSc1ccc(C(=O)Nc2ccc(OC)cc2)cn1 | -5.3 | -0.4 | 2.8 | -6.1 | 0.7 | 4.6%
O=C(CSc1ccc(-c2ccccc2)nn1)N1CCN(c2ccccc2)CC1 | -3.8 | 0.5 | 3.4 | -6.8 | 8.5 | 7.5%
Cc1cc(C)cc(C(=O)n2nc(C)c(S(=O)(=O)N3CCCCCC3)c2C)c1 | . | 1.1 | . | . | -9.0 | 0.7%
CN(C)c1cc(Nc2cccc(O)c2)c([N+](=O)[O-])c2nonc12 | 0.5 | 1.8 | -1.3 | -1.1 | 21.0 | ?
CC(C)C[C@H](NC(=O)N1CCn2c1nc1ccccc12)C(=O)N[C@@H](Cc1ccccc1)C(=O)O | 5.0 | . | -2.2 | 10.1 | . | 1.4%
CCOc1ccc(S(=O)(=O)N(CC)CC(=O)NC2CCS(=O)(=O)C2)cc1 (stereo unspecified) | -3.5 | 4.0 | 5.8 | 0.0 | -15.2 | -0.5%
FC(F)(F)c1nnc(-c2ccccc2)nc1N1CCOCC1 | -1.7 | 1.5 | -1.1 | -6.9 | -15.9 | -2.5%[38.3 µM]
COc1ccc(CNC(=O)C2CCN(S(=O)(=O)N3CCCCC3)CC2)cc1 | 2.7 | 0.3 | 5.6 | -2.8 | 21.7 | 0.4%
O=C(OCCOc1cccc(Cl)c1)C1CCN(S(=O)(=O)c2ccccc2)CC1 | -4.5 | 1.8 | 11.7 | -16.1 | 41.3 | 6.3%
Cc1ccc(CC(=O)Nc2nnc(-c3ccc(F)cc3)o2)c(C)c1 | 1.4 | 0.8 | -13.4 | -12.7 | -2.3 | 4.0%
Cc1ccc(NC(=O)c2sccc2C)cc1[N+](=O)[O-] | -7.8 | -0.1 | 4.2 | -11.3 | -0.9 | 5.6%
COc1ccc(N(CC(=O)NCCc2ccccc2)S(=O)(=O)c2ccccc2)c(OC)c1 | . | 0.8 | . | . | -17.6 | 1.2%
Cc1nnc(SCCn2c(N3CCCCC3)nc3c2c(=O)[nH]c(=O)n3C)s1 | -2.4 | -0.2 | 12.4 | 8.6 | -14.0 | 8.3%
COc1cc(OC)c(N(C)C(=O)c2cc3c(s2)-c2ccccc2S(=O)(=O)C3)cc1Cl | 2.0 | 0.4 | -6.5 | -4.0 | -15.6 | 4.8%
OC(CN1CCN(c2ccccc2Cl)CC1)c1ccccc1 (stereo unspecified) | 1.5 | -0.1 | 2.2 | -11.9 | 5.6 | 8.3%
CN(C)c1nc(N(C)C)nc(N(C#N)CN2C(=O)c3ccccc3S2(=O)=O)n1 | -2.6 | -0.2 | 6.9 | -15.7 | -9.8 | 1.9%
CN(C)c1ccc(C(=S)N2CCN(c3ccc([N+](=O)[O-])cc3)CC2)cc1 | -1.4 | -0.2 | -10.0 | -9.7 | 10.5 | 3.4%
CCOC(=O)c1c(N)sc2c1CCC(C)C2 (stereo unspecified) | -2.6 | 3.2 | -7.4 | -16.3 | -14.7 | 1.4%
O=c1[nH]ccc2c([N+](=O)[O-])cccc12 | -4.9 | 0.9 | -6.6 | -2.1 | -11.9 | -0.9%
CCCN1CCN(CCNC(=O)Nc2cc(C)ccc2C)CC1 | -3.4 | 0.7 | 9.0 | -12.0 | -9.1 | 0.0%
Nn1c(SCC(=O)NC2CCCc3ccccc32)nnc1C1CC1 (stereo unspecified) | -1.1 | 0.3 | 3.6 | -4.4 | -4.5 | -1.5%
COc1ccc(NC(=O)C(NC(C)=O)C(=O)NCc2ccc(F)cc2)cc1 (stereo unspecified) | 1.1 | 1.0 | 4.8 | -13.7 | 8.6 | -2.4%
CC(CN1CCCCCC1)C(=O)NN (stereo unspecified) | -2.4 | 0.4 | -1.1 | -4.1 | 3.5 | 10.1%
O=C(NCc1ccccn1)c1c(-c2ccccc2)sc2ccccc12 | -7.5 | 0.7 | -16.9 | -12.9 | -8.5 | -1.5%
CCOC(=O)C1CCCN(C(=O)Nc2c(-c3ccccc3)noc2C)C1 (stereo unspecified) | -3.1 | -0.5 | 3.2 | -1.4 | 49.4 | 0.3%
CN1CCN(CCCNC(=O)Cn2c(-c3cccs3)cc3ccccc32)CC1 | . | 0.4 | . | . | -3.5 | -1.1%
Cc1cccc(C2=NN(c3ccc(Br)cc3)[C@@H](C(=O)N3CCOC3=O)[C@@H]2c2ccc(F)cc2)c1 | 2.0 | -0.4 | 28.0 | -7.8 | -8.3 | 1.2%
O=C(CSc1ncccn1)Nc1ncc(C(F)(F)F)cc1Cl | -4.0 | 0.1 | 0.2 | -1.2 | -16.1 | 6.0%
CC1(C)Oc2cc3oc(=O)ccc3cc2C[C@@H]1O | -1.7 | 0.5 | 2.1 | -4.2 | 29.4 | 2.1%
Cc1ccc(Nc2ccc3cc(S(=O)(=O)N4CCCCC4)ccc3n2)cc1F | . | 4.6 | . | . | -10.6 | ?
Cc1cc(-n2nc(C)cc2C)nc(NS(=O)(=O)c2ccccc2Cl)n1 | -5.5 | -0.3 | -9.7 | -9.7 | -24.9 | 3.5%
CCOCCCNC(=O)c1cc(Sc2ccc(C)cc2)nc2ccccc12 | -3.8 | 3.3 | 7.6 | -6.0 | -13.0 | 2.6%
CC(NC(=O)c1ccc2nc[nH]c2c1)c1ccccc1 (stereo unspecified) | 0.8 | 0.0 | 4.6 | -2.9 | -4.2 | 1.3%
Cc1ccc(-c2c(C(=O)NNC(=S)NCC3CCCO3)csc2C)cc1 (stereo unspecified) | 1.3 | 2.3 | 1.8 | -13.1 | ? | -1.8%
COc1ccc(/C(C)=N/NC(=O)c2ccc(NS(=O)(=O)c3cccs3)cc2)cc1 | -5.2 | -0.3 | -1.1 | -12.2 | -9.1 | 0.5%
Cc1c(Cl)cccc1-n1ncc(C(=O)N2CCN(C)CC2)c1C1CCN(C(=O)OC(C)(C)C)CC1 | . | 1.9 | . | . | 3.4 | -0.8%
COc1cc(S(=O)(=O)Nc2cccc(C)c2)ccc1NC(=O)c1ccncc1 | 0.7 | 1.2 | -1.9 | 2.1 | -9.3 | -0.8%
COCCn1c(C)cc(/C=C2/NC(=O)N(c3cccc(Cl)c3)C2=O)c1C | -1.0 | 0.8 | -6.0 | -6.8 | 8.0 | 6.6%
COc1ccc(NC(=O)c2noc(C(C)C)c2[N+](=O)[O-])cc1 | 4.4 | -0.1 | 4.2 | -5.5 | 3.1 | -1.3%
Cc1ccc(C(=O)N2CC(C)SC2=Nc2cccc(S(=O)(=O)N(C)C)c2)cc1 (stereo unspecified) | -7.7 | -0.2 | -6.3 | 4.3 | -1.5 | 3.4%
O=C(Nc1cccc2ccccc12)NC1CCCCC1O (stereo unspecified) | 2.8 | -0.3 | 9.6 | -27.5 | -16.8 | 1.7%
Cc1ccc([N+](=O)[O-])cc1NC(=O)c1ccc2c(c1)OCO2 | -2.2 | -0.7 | 6.9 | -3.7 | -8.8 | 2.3%
Cc1cccc(OC(=O)c2cc(-c3ccc(C)c(C)c3)on2)c1 | . | -0.3 | . | . | 16.2 | 0.0%

Six structures out of the list, ordered by number of heavy atoms, ascending:
SMILES | D2 agonist | TRPML1 ag | Six1-Eya2 inh | D2 potentiator | TRPML1 inh | PINK1 expr mod
CC(NC(=O)c1ccc2nc[nH]c2c1)c1ccccc1 (stereo unspecified) | 0.8 | 0.0 | 4.6 | -2.9 | -4.2 | 1.3%
Cc1ccc(CC(=O)Nc2nnc(-c3ccc(F)cc3)o2)c(C)c1 | 1.4 | 0.8 | -13.4 | -12.7 | -2.3 | 4.0%
COC(=O)c1cccc(CN2C(=O)SC(Nc3ccccc3)C2=O)c1 (stereo unspecified) | -2.6 | 0.0 | 7.9 | -6.8 | ? | 0.1%
COc1ccc(NC(=O)C(NC(C)=O)C(=O)NCc2ccc(F)cc2)cc1 (stereo unspecified) | 1.1 | 1.0 | 4.8 | -13.7 | 8.6 | -2.4%
C=CCC1(CC=C)CCCN1C(=O)c1cc(COc2ccc(-n3cncn3)cc2)on1 | 5.4 | 4.8 | -4.7 | -6.8 | 22.3 | 0.2%
CC(C)C[C@H](NC(=O)N1CCn2c1nc1ccccc12)C(=O)N[C@@H](Cc1ccccc1)C(=O)O | 5.0 | . | -2.2 | 10.1 | . | 1.4%

High-throughput results from PubChem.
